# Compound activity: PubChem, National Center for Advancing Translational Sciences (NCATS)
# Marburg entry = qHTS for Inhibitors of binding or entry into cells for Marburg Virus | Marburg virus pseudotype entry/binding inhibition, cell-based; control for the full effect not named in the record; many of its hits are not listed in these tables | Potency, µM (doses to about 49.2 µM), for inactives: at the top dose activity change, negative = inhibition, most hits filed as inhibitors | 18,000 compounds, 6.5% hits; active means well fitted inhibition curve with a large enough effect; inconclusive means small, poorly fitted or top-dose-only effect; inactive means no such curve, though single readings can be large or run the other way; tested in HEK293 cells; further: luciferase read-out
# LASV entry inh = qHTS for Inhibitors of binding or entry into cells for Lassa Virus | 18,000 compounds, 4.1% hits | AID 720533, 2013 | Lassa virus pseudotyped entry inhibition, cell-based qHTS; control for the full effect not named in the record; many of its hits are not listed in these tables | Potency, µM (top dose mostly 49.2 µM), without a hit: at the top dose activity change, negative = inhibition, hits mostly inhibitors; active = well fitted inhibition curve with a large enough effect; inconclusive = small, poorly fitted or top-dose-only effect; inactive = no such curve, though single readings can be large or run the other way; tested in HEK293 cells; further: luciferase read-out
# * marks the source's active call; other numbers are inactive results; u = inconclusive; x = not tested or not shown; & = joins results of further samples; ! = not active in a repeat; [ ] = remark or other dose. On the % scale 0 is the no-effect control and ±100 the full control effect; potency means the concentration at half of the fitted maximal effect. This is a subset, so the mix of outcomes need not match the whole.
SMILES,Marburg entry,LASV entry inh
COc1cc(C(=O)O[C@@H]2CC3CC[C@]2(C)C3(C)C)ccc1O,u,u
CC[C@H](C)[C@H](N)C(=O)N[C@H]1CCC(=O)NCC(C(=O)N[C@@H](Cc2ccc(O)cc2)C(=O)N[C@@H](CCCNC(=N)N)C(=O)N[C@@H](CC(C)C)C(=O)N[C@@H](CCCNC(=N)N)C(=O)N[C@@H](Cc2ccc(O)cc2)C(N)=O)NC(=O)[C@@H]2CCCN2C(=O)[C@@H](NC(=O)[C@@H](N)[C@@H](C)CC)CCC(=O)NCC(C(=O)N[C@@H](Cc2ccc(O)cc2)C(=O)N[C@@H](CCCNC(=N)N)C(=O)N[C@@H](CC(C)C)C(=O)N[C@@H](CCCNC(=N)N)C(=O)N[C@@H](Cc2ccc(O)cc2)C(N)=O)NC(=O)[C@@H]2CCCN2C1=O (some centres not stated),-6%,-12%
Cc1occc1C(=O)Nc1cccc(-c2nc(CNC(=O)c3cc(-c4ccccc4)n[nH]3)c(C)o2)c1,-24%,-8%
CCN(CC)CCN(C)C(=O)c1ccc(-c2ccccc2)nc1N(C)C,-14%,2%
COc1cc(-c2cc(C)c3cccc(OC)c3n2)cc2c1OCCN(C(=O)CC1NC(=O)c3ccccc31)C2 (configuration not stated),-6%,-14%
Cc1ccc(NC(=O)N(C)C)cc1Cl,0%,-8%
CCOC(=O)OC[C@H]1O[C@H](C#Cc2ccccc2)C=C[C@H]1OC(=O)OCC,-16%[8.59 µM],-10%[8.59 µM]
C/C1=C2N=C(/C=C3N=C(/C(C)=C4\[N-][C@@](C)([C@@H]5N=C1[C@](C)(CCC(=O)NCC(C)OP(=O)(O)O[C@H]1[C@@H](O)[C@@H](n6cnc7cc(C)c(C)cc76)O[C@@H]1CO)[C@H]5CC(N)=O)[C@@](C)(CC(N)=O)[C@@H]4CCC(N)=O)[C@@](C)(CC(N)=O)[C@@H]\3CCC(N)=O)C(C)(C)[C@@H]/2CCC(N)=O.CC(=O)O.[Co] (some centres not stated),2.8µM*,3.2µM*
Cc1ccc(C(=O)N2CCOc3ccc(CN4CCN(Cc5ccccn5)CC4)cc3C2)cc1,-17%,-11%
COc1cc2c(cc1Nc1nc(N3CCc4ccccc43)c3cc[nH]c3n1)N(C(=O)CN(C)C)CC2,u,x
O=S(=O)(N[C@@H](CO)Cc1ccccc1)c1cc(Cl)ccc1F,29%,10%
CN(C)CC/C=C1\c2ccccc2Sc2ccc(Cl)cc21,11µM*!,28µM*!
Oc1cc2c(cc1O)CN(C(=S)NCCc1ccc(Cl)cc1)CCC2,-6%&5%,u
CCOC(=O)CCC(=O)O[C@H]1C(O[C@@H]2C(C)[C@H](O[C@H]3C[C@@](C)(OC)C(O)C(C)O3)C(C)C(=O)OC(CC)[C@@](C)(O)C(O)[C@H](C)C(=O)C(C)C[C@]2(C)O)OC(C)CC1N(C)C (some centres not stated),13%,-9%
COc1cc(=O)n2c(c1C(=O)N(C)Cc1nonc1C)CCN(Cc1ccc(F)cc1)CC2,-2%,u
COc1ccc([C@H]2OCC3C2CO[C@@H]3c2ccc(OC)c(OC)c2)cc1OC (some centres not stated),-14%,-4%
CC(C)=CCC/C(C)=C/CC/C(C)=C/CSCC(=O)O,9%&9%&-9%,0%&-15%&1%
Cn1cnc2nc(NCCO)nc(NCc3ccccc3)c21,15%,-18%
COC(=O)C1=C(C(=O)OC)[C@@H]2Nc3ccccc3[C@@]23C[C@@H](C(=O)OC)N(C(=O)NCCBr)C3=N1,78%[activator][8.59 µM],-11%[8.59 µM]
Cc1ccccn1,-9%,-12%
O=C1NCN(c2ccccc2)C12CCN(CCCOc1ccc(F)cc1)CC2,18µM*,16µM*
CC(=O)OCC(=O)[C@@]1(O)CCC2C3CCC4=CC(=O)CC[C@]4(C)C3[C@@H](O)C[C@@]21C (some centres not stated),3%,-1%
CC(C)c1c(C(=O)NCC2(N3CCCCC3)CCCC2)cnn1-c1nccc(-c2ccco2)n1,-40%,7%
O=c1cc(-c2ccccc2Cl)oc2c(NS(=O)(=O)c3ccccc3OC(F)(F)F)ccc(O)c12,-9%,22%
Oc1ccc(Cl)cc1Sc1cc(Cl)ccc1O,u,13µM*
CCOc1ccc2c(-c3ccnc(Nc4cc(OC)cc(C(F)(F)F)c4)n3)cnn2n1,6.3µM*,x
CNC[C@@H]1CC[C@@H](N)[C@@H](O[C@H]2[C@H](O)[C@@H](O[C@H]3OC[C@](C)(O)[C@H](NC)[C@H]3O)[C@H](N)C[C@@H]2N)O1,13%,-12%
Cc1cc2c(nc1C)CCCCN2C[C@H](C)ON=C1[C@H]2CCn3c(=O)n(-c4ccccc4)c(=O)n3[C@@H]2[C@H](O)[C@@H]2O[C@H]12,26%[8.59 µM],10%[8.59 µM]
COc1cc2c(cc1O)C[C@H]1c3c(cc(OC)c(O)c3-2)CCN1C,-25%,-8%
O=C(Nc1ccc(C(=O)N2CCOCC2)cc1)C1CCC1,21%,11%
Cc1cc2c(c(=O)o1)[C@H]1O[C@](c3ccsc3)(Cc3c1ccc1ccccc31)O2,u,13%[8.59 µM]
COc1ccccc1N1CCN(c2nc(CNC(=O)c3cc(C)oc3C)nc3ccccc23)CC1,u,u
CC(=O)c1ccc(C(=O)NCC2Cc3cccc(-c4ncccn4)c3O2)cc1 (configuration not stated),u,4%
CCN1C(=NCc2cc(OC)c(OC)c(OC)c2)NC(c2cccc(C(F)(F)F)c2)C(C(=O)OC)=C1C (configuration not stated),13%[8.59 µM],-26%[8.59 µM]
Cc1ccc(C(=O)Nc2cccc(-c3nc(CNC(=O)c4cccc(C)c4C)c(C)o3)c2)s1,u,u
CC1(C)C(=O)CC[C@@]2(C)C1CC(O)[C@@]1(C)C3=CC(=O)OC(c4ccoc4)[C@]3(C)CCC21 (some centres not stated),u,-5%
O=C1CC[C@H](C(=O)N2CCCCC2)N1,9%,2%
COc1cc(CC(=O)OCC2=C[C@H]3[C@@H]4C(C)(C)[C@]4(OC(C)=O)[C@H](OC(=O)Cc4ccccc4)[C@@H](C)[C@]3(O)[C@@H]3C=C(C)C(=O)[C@@]3(O)C2)ccc1O,u,13µM*
COCn1c2ccccc2c2nnc(C(=O)O)nc21,17%[8.59 µM],-19%[8.59 µM]
CC12CCC(C1)C(C)(C)C2=O (configuration not stated),-16%,-6%
COC(=O)/C(Cc1cc(Br)c(OC)c(Br)c1O)=N/O,-2%,4%
C=CCN1c2ccc(Br)cc2C(O)CS1(=O)=O (configuration not stated),u,28%
CCCCNCCS(=O)(=O)NCc1ccccc1OC,u,12%
CCOC(=O)N1CCN(Cc2ccc3c(c2)CN(C(=O)c2cc(-c4ccccc4)on2)CCO3)CC1,-28%,u
CCCCC(C)(O)C/C=C/[C@H]1[C@H](O)CC(=O)[C@@H]1CCCCCCC(=O)OC (some centres not stated),18%&-20%,u
CCO[C@H](Cc1ccc(OCCc2ccc(OS(C)(=O)=O)cc2)cc1)C(=O)O,-4%,-10%
COc1ccc(COC(=O)NN=C2C[C@@H](O)[C@@H](O)[C@@H]3[C@H]4C(=O)N(Cc5ccccc5)C(=O)[C@@H]4CC[C@@H]23)cc1,-25%[8.59 µM],u
Cc1cccc(CNc2ncncc2-c2ccccc2C(F)(F)F)c1,-15%,1%

# Twelve entries already listed, arranged by molar mass, falling:
SMILES,Marburg entry,LASV entry inh
COc1cc(CC(=O)OCC2=C[C@H]3[C@@H]4C(C)(C)[C@]4(OC(C)=O)[C@H](OC(=O)Cc4ccccc4)[C@@H](C)[C@]3(O)[C@@H]3C=C(C)C(=O)[C@@]3(O)C2)ccc1O,u,13µM*
CCN1C(=NCc2cc(OC)c(OC)c(OC)c2)NC(c2cccc(C(F)(F)F)c2)C(C(=O)OC)=C1C (configuration not stated),13%[8.59 µM],-26%[8.59 µM]
CCOC(=O)N1CCN(Cc2ccc3c(c2)CN(C(=O)c2cc(-c4ccccc4)on2)CCO3)CC1,-28%,u
Cc1ccc(C(=O)Nc2cccc(-c3nc(CNC(=O)c4cccc(C)c4C)c(C)o3)c2)s1,u,u
CC1(C)C(=O)CC[C@@]2(C)C1CC(O)[C@@]1(C)C3=CC(=O)OC(c4ccoc4)[C@]3(C)CCC21 (some centres not stated),u,-5%
CCO[C@H](Cc1ccc(OCCc2ccc(OS(C)(=O)=O)cc2)cc1)C(=O)O,-4%,-10%
COC(=O)/C(Cc1cc(Br)c(OC)c(Br)c1O)=N/O,-2%,4%
CCCCC(C)(O)C/C=C/[C@H]1[C@H](O)CC(=O)[C@@H]1CCCCCCC(=O)OC (some centres not stated),18%&-20%,u
C=CCN1c2ccc(Br)cc2C(O)CS1(=O)=O (configuration not stated),u,28%
CCCCNCCS(=O)(=O)NCc1ccccc1OC,u,12%
COCn1c2ccccc2c2nnc(C(=O)O)nc21,17%[8.59 µM],-19%[8.59 µM]
CC12CCC(C1)C(C)(C)C2=O (configuration not stated),-16%,-6%

# Additional compounds.
SMILES,Marburg entry,LASV entry inh
Cc1ccc(-c2cc(=O)c3cc(C)ccc3[nH]2)cc1,25µM*,u
NC(=O)C[C@H](NC(=O)Cc1ccc(O)cc1O)C(=O)O,11%&1%&7%,-4%&2%&-4%
CCCCCCCCCCCC(=O)N(CCO)CCO,1%,-19%
COc1cccc([C@@H]2Oc3ccc(OC)cc3C(=O)[C@H]2OC(=O)Nc2ccc(C)c(Br)c2)c1,5%,-7%
CN(C)Cc1ccccc1-c1ccc2ncnc(NC3CCNCC3)c2c1,7.1µM*,7%
CC(C)CC1C(=O)N(Cc2cn(CCC3OCCCO3)nn2)CCS(=O)(=O)N1Cc1ccc(-c2ccccc2)cc1 (configuration not stated),-21%,-27%
CCCCCCC#Cc1cc(OC)c(OC)cc1C(N1CC(C)c2ccccc21)N1CC(C)c2ccccc21 (configuration not stated),33%[activator][8.59 µM],9%[8.59 µM]
CCCCCCCc1cc2c(cn1)C(=O)C(C)(OC(C)=O)C(O)=C2Cl (configuration not stated),u,-3%
C[C@H](CCC(=O)NCC(=O)O)C1CC[C@H]2[C@H]3C(C[C@H](O)[C@]12C)[C@@]1(C)CC[C@@H](O)C[C@H]1C[C@H]3O (some centres not stated),4%,-4%
COC(=O)C1CCN(Cc2ccc3c(c2)CN(C(=O)c2ccnn2C)CCO3)CC1,u,-5%
NCCCCC(N)C(=O)NC(Cc1ccc(O)cc1)C(=O)NC(CCCCN)C(=O)O (configuration not stated),5%,-4%
COC(=O)CC1C(C)(C)C(OC(C)=O)C2[C@H](OC(C)=O)[C@]34O[C@]2(O)[C@]1(C)C3CC[C@]1(C)C4=CC(=O)OC1c1ccoc1 (some centres not stated),7.9µM*,u
CC(=O)/C(=C\c1ccccc1)CC(=O)O,-7%,-8%
O=C(O)c1ccc(O)cc1,5%,-4%
COC(=O)C1CCN(C2CN(Cc3ccc(C)cc3)S(=O)(=O)C2)CC1 (configuration not stated),14%,x
O=C1Nc2ccccc2C1=C1CCc2cc(O)ccc21,-21%,x
CCOc1cc(C=O)ccc1O,5%,-13%
O=C(O)c1ccccc1Nc1cccc(OCc2ccc3ccccc3n2)c1,u,16µM*
CN(C)c1ccc(C(=C2C=CC(=[N+](C)C)C=C2)c2c(O)c(S(=O)(=O)[O-])cc3cc(S(=O)(=O)O)ccc23)cc1,u,u
COc1ccc(C2CC(=O)Oc3cc(OC)ccc32)cc1 (configuration not stated),9%,-9%
CO/N=C(/C(=O)N[C@@H]1C(=O)N2C(C(=O)O)=C(COC(N)=O)CS[C@H]12)c1ccco1,16%&18%,4%&-5%
C[C@H](N)C(=O)N[C@@H](Cc1ccc(F)cc1)C(=O)N[C@@H](CCCN=C(N)N)C(=O)N[C@@H](CC1CCCCC1)C(=O)N[C@@H](CCCCN=C(N)N)C(=O)N[C@@H](Cc1ccc(O)cc1)C(N)=O,29%,5%
COc1cc(OC)cc(C(=O)NCC2Cc3cccc(-c4nc(C)cnc4C)c3O2)c1 (configuration not stated),-13%,-8%
O=C(O)C1=C(CSc2nnnn2CS(=O)(=O)O)CS[C@@H]2[C@H](NC(=O)[C@H](O)c3ccccc3)C(=O)N12,7%,-11%
CC(Cc1ccccc1)NCCn1cnc2c1c(=O)n(C)c(=O)n2C (configuration not stated),9%,6%
CNC(=O)NC(O)C(Cl)(Cl)Cl (configuration not stated),-3%,-15%
OCC(O)CS (configuration not stated),17%,-9%
O=c1oc2ccccc2c2c1[C@H]1O[C@](c3ccsc3)(Cc3ccccc31)O2,9%[8.59 µM],2%[8.59 µM]
CN(C)C(=O)c1ccc(-c2ccc3ncnc(NCc4cccnc4)c3c2)cc1,9%,-17%
COC(=O)C[C@@](O)(CCC(C)(C)O)C(=O)O[C@@H]1C(OC)=C[C@]23CCCN2CCc2cc4c(cc2[C@@H]13)OCO4,0.1µM*,0.11µM*
COCCN1C(=O)N[C@@H](c2ccc(Br)cc2)C(C(C)=O)=C1C,-10%,-17%
OCl,8%,-6%
Cc1cc2c(c(=O)o1)[C@H]1O[C@](c3ccsc3)(Cc3ccccc31)O2,10%[8.59 µM],1%[8.59 µM]
O=C(NCc1ccccc1)c1cccc(NC(=O)C2CCC2)c1,-8%,x
Cc1c(C2CCN(CCc3ccccc3)CC2)noc1-c1ccc(Cl)cc1,11µM*,-12%&-12%
O=C(O)c1ccc(S(=O)(=O)N(Cl)Cl)cc1,9%,-2%
Nc1c(NC/C=C\COc2cc(CN3CCCCC3)ccn2)c(=O)c1=O,4%,-7%
CN(c1ccc(Cl)cc1)c1cc2c(c3c1ccn3C)C1CCC2C1 (configuration not stated),u,5%
